Mtb betalactam: beta-lactam sensitization of Mtb H37Rv; M. tuberculosis H37Rv growth with meropenem, percent inhibition; hits of this screen are not shown here; inhibition, % at 25 µM; hit rate 0.27% among 330,000; AID 434955;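 active = about 74% or more and at least 40 points above the plate without the antibiotic, then above 30% in a dose series; inconclusive = first-round hits that could not be retested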;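 note: growth measured after seven days incubation then overnight dye step; 0% = bacteria only wells and 100% = bacteria with antibiotic; twin plates without the antibiotic show which effects depend on it; some results filed as inactive read as strong as hits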
RecA intein inh: Mtb RecA intein splicing inhibition; P9WHJ3; cell-free RecA intein splicing, fluorescence; inhibition, %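 (about 9 µM by stock and volumes)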; hit rate 0.75% among 290,000; AID 2221; in the data active = inhibition above about 30%; inconclusive = no clear call, values can overlap the other calls;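 note: 0% = vehicle wells and 100% = reference inhibitor control wells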
Target sequence (P9WHJ3 whole entry, looked up): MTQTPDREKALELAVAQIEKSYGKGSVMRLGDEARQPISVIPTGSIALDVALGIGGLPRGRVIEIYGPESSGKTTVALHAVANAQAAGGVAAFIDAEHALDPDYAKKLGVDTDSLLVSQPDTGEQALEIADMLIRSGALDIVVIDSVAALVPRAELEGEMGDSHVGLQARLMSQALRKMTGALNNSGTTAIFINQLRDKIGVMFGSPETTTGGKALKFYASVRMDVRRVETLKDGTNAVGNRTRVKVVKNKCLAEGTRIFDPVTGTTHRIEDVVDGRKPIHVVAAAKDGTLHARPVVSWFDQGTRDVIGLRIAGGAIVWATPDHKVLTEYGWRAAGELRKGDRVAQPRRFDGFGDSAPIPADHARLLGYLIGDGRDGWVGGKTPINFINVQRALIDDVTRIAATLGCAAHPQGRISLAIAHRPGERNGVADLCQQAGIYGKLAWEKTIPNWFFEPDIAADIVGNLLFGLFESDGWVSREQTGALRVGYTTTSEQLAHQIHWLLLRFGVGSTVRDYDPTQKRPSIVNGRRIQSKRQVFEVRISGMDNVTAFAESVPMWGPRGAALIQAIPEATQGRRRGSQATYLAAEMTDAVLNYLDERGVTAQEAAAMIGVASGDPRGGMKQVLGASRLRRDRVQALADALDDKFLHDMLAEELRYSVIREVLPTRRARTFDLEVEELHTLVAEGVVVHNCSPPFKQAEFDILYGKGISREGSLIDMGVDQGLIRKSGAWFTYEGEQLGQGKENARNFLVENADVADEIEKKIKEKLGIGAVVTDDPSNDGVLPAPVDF
Mtb growth: M. tuberculosis H37Rv growth inhibitors, H37Rv strain (AID 1626) | M. tuberculosis H37Rv growth inhibition; higher % means a stronger effect | inhibition, % at 10 µM, or IC50 in µM where a hit was titrated | hit rate 0.95% among 220,000;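 active = confirmed in a dose series; inconclusive = inhibition above 80% but not taken into the dose series; inactive = below 80% or under 30% at every dose of the series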;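 note: bacteria incubated seven days before Alamar blue readout; 0% = bacteria only wells and 100% = bacteria with antibiotic wells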
YopH PTP inh: YopH (Yersinia) phosphatase inhibition; fluorescence Ex485/Em525; inhibition, %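 (about 10 µM by stock and volumes)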; hit rate 0.16% among 140,000;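 active = inhibition of 50% or more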;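 note: controls were vehicle for no effect and minimum signal wells for full effect; inactives centre near -20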
Arbovirus inh: antivirals against arbovirus infection; inhibition, % at 10 µM; AID 1251; hit rate 0.37% among 200,000; arbovirus infection cell-based antiviral screen;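 active = inhibition from about 30%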;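 note: bluetongue infection of BSR cells; cell survival read as ATP light after 72 h; 0% = infected wells without compound and 100% = uninfected wells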
Arbovirus inh repeat: second read-out of Arbovirus inh, no call of its own (marks repeat the call); inhibition, %; measured here: 10K subset replicate screen; many hits read low in the repeat;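 first of two repeat runs on a subset; 0% = infected and 100% = uninfected wells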
Numbers without * were called inactive; ? = inconclusive; . = not tested or not shown. These rows are one share of the data (hit frequency here may not be typical).

SMILES	Mtb betalactam	RecA intein inh	Mtb growth	YopH PTP inh	Arbovirus inh	others
COc1ccccc1C(=O)Nc1ccc(C2=NNC(=O)CC2C)cc1 (stereo not given)	34	-1.5	31%	-10	6
COc1cc2cc(CN(Cc3cccnc3)C(=O)NCc3ccccc3)c(=O)[nH]c2cc1OC	-14	-0.2	3%	-48	5
COc1cccc(NC(=O)c2sc3ncn(CC(=O)N4CCN(c5ccccn5)CC4)c(=O)c3c2C)c1	6	0.8	.	.	.
Cn1c(Cl)cnc1C1CC(=O)c2cc(Cl)ccc2O1 (stereo not given)	97	-4.6	?	-37	-35
Oc1[nH]c2ccccc2c1N=Nc1c(F)c(F)c(Cl)c(F)c1F	6	-0.6	.	.	.
CC1=NN(C(=O)c2ccc(Cn3cc([N+](=O)[O-])cn3)cc2)C(O)(C(F)(F)F)C1 (stereo not given)	-9	-0.4	5%	-12	11
O=C1OC(/C=C/c2ccccc2)=NC/1=C/c1ccco1	.	4.4	1%	-28	1
COc1ccc(NC(=S)N2CCN(c3ccccc3)CC2)c(OC)c1	-1	-3.7	.	.	.
Cc1ccc(OCC(=O)Nc2sc3c(c2C#N)CCC3)cc1C	-1	0.8	-5%	-17	0
C#CCONC(=O)c1cc(OCC(F)(F)F)ccc1OCC(F)(F)F	-4	-2.3	-5%	-7	-1
Cc1nonc1NC(=O)c1ccccc1Br	3	0.4	-6%	-4	-1	Arbovirus inh repeat=4
COc1cccc(CN2CCN(Cc3nc(-c4cccs4)oc3C)CC2CCO)c1 (stereo not given)	3	1.8	0%	.	2
CCN(CC(=O)Nc1ccc(OC)cc1)CC(=O)Nc1ccc(Cl)cc1F	-5	-4.0	3%	.	5
COc1ccc(CNC(=O)CN(c2cc(C)cc(C)c2)S(=O)(=O)c2c(C)[nH]c(=O)[nH]c2=O)cc1	5	-9.6	.	.	.
Cc1cccc(N(CC(=O)NC2CCCC2)C(=O)CS(=O)CC(=O)Nc2ccc3c(c2)OCO3)c1C (stereo not given)	-8	-3.0	-16%	-8	0
CCOc1ccc(N2C(=O)Nc3ccccc3C2(O)C(=O)NCc2ccc(OC)cc2)cc1 (stereo not given)	1	.	3%	.	4
O=C(c1ccc(F)cc1)N1CCN(Cc2ccccc2)CC1	-6	2.0	.	.	.
Cc1ccc(C(CNS(=O)(=O)c2ccc(Cl)cc2)N2CCN(C)CC2)cc1 (stereo not given)	-1	-1.3	.	.	.
Cc1ccccc1C(=O)O/N=C(\c1ccccc1)c1ccccn1	-4	-0.7	8%	-16	0
COc1ccc(NC(=O)c2c(C)oc3c2CCCC3)cc1	4	0.0	0%	-38	1
Cc1cccc(CSCCNC(=O)c2ccc(CN3CCOCC3)cc2)c1	7	-0.8	-5%	-25	0
COc1ccc(-c2oc(=O)n(C)c2-c2ccc(OC)cc2)cc1	0	1.0	.	.	.
CCN(CCNC(=O)Cn1c(=O)sc2ccccc21)c1ccccc1	-3	0.9	0%	-2	4	Arbovirus inh repeat=-1
CC1Cc2ccccc2N1C(=O)CSc1nnc2c(n1)[nH]c1ccccc12 (stereo not given)	-8	-1.1	-18%	-21	-7
COc1ccc(C(=O)NC(=S)NNC(=O)[C@H]2C[C@@H]2c2ccccc2)cc1OC	9	3.0	4%	.	.
Cn1ncc(Br)c1C(=O)Nc1cccc(C(F)(F)F)c1	-4	-0.8	10%	.	.
CCN(CC)c1cc(C)c2ccccc2n1	-1	-0.4	-12%	-3	-3
O=C(COC(=O)CSc1cccc2cccc(Cl)c12)Nc1ncc(C(F)(F)F)cc1Cl	3	9.5	-10%	27	9
Cc1c(/C=C2\SC(=Nc3cccc(C(=O)O)c3)NC2=O)c2ccccc2n1C	11	-6.4	3%	.	.
CCO[C@H]1OC(C(=O)N2CCN(Cc3ccc4c(c3)OCO4)CC2)=C[C@@H](c2ccc3c(c2)OCO3)[C@@H]1CCCO	-6	-2.1	-12%	.	1
COCCCNc1nc(N)c([N+](=O)[O-])c(NCc2ccccc2)n1	-6	1.2	.	.	.
CC(=O)c1ccc(N2CCN(CC(=O)Nc3ccccc3N3CCOCC3)CC2)cc1	3	-1.6	-7%	.	2
COc1ccccc1NS(=O)(=O)c1cc(N/C(=N\S(=O)(=O)c2ccccc2)c2ccc(F)cc2)ccc1Cl	3	11	8%	-35	5
O=C(O)CN1C(=O)/C(=C\c2cc([N+](=O)[O-])ccc2OCc2ccccc2Cl)SC1=S	-2	26	.	.	.
Cc1ccc(C)c(NC(=O)CSc2nc(N)c(NC(=O)c3cccs3)c(=O)[nH]2)c1	.	.	-4%	-32	2
CCn1c(=O)oc2cc(NC(=O)CCl)ccc21	96	4.9	14%	.	0
O=C(CCN1CCCCC1=O)NC1CCCN(Cc2ccc(Cl)cc2)C1 (stereo not given)	-3	0.2	.	.	.
COCCn1c(Cc2ccccc2)nnc1SCC(=O)NC1CC1	8	-1.2	.	.	.
COc1ccccc1NC(=O)C1=C(C)NC(=O)NC1c1cc(C)cs1 (stereo not given)	4	0.9	1%	-22	-4
Cc1ccc(Oc2nc3c(c(=O)n(C)c(=O)n3C)n2C)cc1C	-2	-0.8	4%	.	11
O=C(NC1C2CC3CC(C2)CC1C3)C1CC1 (stereo not given)	-8	1.4	0%	-11	2
COc1ccc(CCNC(=O)C(=O)NCC2CCCO2)cc1OC (stereo not given)	-1	0.9	3%	-21	-3
O=C(NC1CCN(C(=S)NCCc2ccccc2)CC1)C1CCCCC1	-4	0.0	0%	.	6
Brc1cc(Br)c2ncnc(N3CCCCC3)c2c1	9	3.8	6%	-40	-18	Arbovirus inh repeat=-14
NS(=O)(=O)c1ccc(NC(=O)COc2ccc(Cl)cc2)cc1	3	-3.7	.	.	.
Cc1cc(OCc2nnc(SCC(=O)OC3CCCCC3)o2)ccc1Cl	?	-5.7	0.37µM*	-40	-1
CCc1nc(CN(C)C(=O)C2CCC(=O)N(Cc3cccc(F)c3)C2)no1 (stereo not given)	4	1.3	.	.	.
O=c1cc(O)c2ccccc2n1Cc1ccccc1F	-2	-3.1	7%	.	10
O=C(O)c1ccccc1C(=O)c1ccc2c(c1)N(Cc1cccc(F)c1)C(=O)CO2	8	2.8	10%	.	14
CCCn1c(-c2ccncc2)n[nH]c1=S	-8	0.3	0%	.	-9

Some of these compounds in order of count of non-hydrogen atoms, ascending.
SMILES	Mtb betalactam	RecA intein inh	Mtb growth	YopH PTP inh	Arbovirus inh	others
O=c1cc(O)c2ccccc2n1Cc1ccccc1F	-2	-3.1	7%	.	10
COCCCNc1nc(N)c([N+](=O)[O-])c(NCc2ccccc2)n1	-6	1.2	.	.	.
Cc1c(/C=C2\SC(=Nc3cccc(C(=O)O)c3)NC2=O)c2ccccc2n1C	11	-6.4	3%	.	.

More entries follow:
SMILES	Mtb betalactam	RecA intein inh	Mtb growth	YopH PTP inh	Arbovirus inh	others
O=C(COC(=O)CC1CC2CCC1C2)NC(=O)NCc1ccco1 (stereo not given)	-5	4.8	-3%	7	-4
O=c1cc(CN2CCN(c3ccccc3)CC2)c2c(ccc3ccccc32)o1	62	7.7	16%	-60	-4
Brc1ccc([C@H]2CN3CCSC3=N2)cc1	3	10	-3%	.	.
COc1ccc(NS(=O)(=O)c2cccc(C(=O)NNC(=O)c3cccn3C)c2)cc1	-14	2.1	.	.	.
Cc1ccc(N2C(=O)C(Cl)=C(Nc3c(C)n(C)n(-c4ccccc4)c3=O)C2=O)cc1	4	-4.4	-2%	-5	3
Cc1ccc(Oc2nnc(-c3cccs3)c3ccccc23)cc1	-3	1.1	-3%	-34	-2
COc1ccc(Cc2nnc(NC(=O)c3cccc([N+](=O)[O-])c3C)s2)cc1	14	0.9	-3%	0	0
CCOc1ccc(NC(=O)C(C)O)c(NS(=O)(=O)c2ccc(CCNC(C)=O)cc2)c1 (stereo not given)	3	-4.4	-8%	-46	11
O=C(Nc1nccs1)c1ccc(NC(=O)c2ccco2)cc1	1	0.2	-14%	-11	-5
C=CCOc1ccc2c(OC)c3ccoc3nc2c1OC	-2	11	-6%	-15	-12

24 successive records from above, for reference:
SMILES	Mtb betalactam	RecA intein inh	Mtb growth	YopH PTP inh	Arbovirus inh	others
O=C(CCN1CCCCC1=O)NC1CCCN(Cc2ccc(Cl)cc2)C1 (stereo not given)	-3	0.2	.	.	.
COCCn1c(Cc2ccccc2)nnc1SCC(=O)NC1CC1	8	-1.2	.	.	.
COc1ccccc1NC(=O)C1=C(C)NC(=O)NC1c1cc(C)cs1 (stereo not given)	4	0.9	1%	-22	-4
Cc1ccc(Oc2nc3c(c(=O)n(C)c(=O)n3C)n2C)cc1C	-2	-0.8	4%	.	11
O=C(NC1C2CC3CC(C2)CC1C3)C1CC1 (stereo not given)	-8	1.4	0%	-11	2
COc1ccc(CCNC(=O)C(=O)NCC2CCCO2)cc1OC (stereo not given)	-1	0.9	3%	-21	-3
O=C(NC1CCN(C(=S)NCCc2ccccc2)CC1)C1CCCCC1	-4	0.0	0%	.	6
Brc1cc(Br)c2ncnc(N3CCCCC3)c2c1	9	3.8	6%	-40	-18	Arbovirus inh repeat=-14
NS(=O)(=O)c1ccc(NC(=O)COc2ccc(Cl)cc2)cc1	3	-3.7	.	.	.
Cc1cc(OCc2nnc(SCC(=O)OC3CCCCC3)o2)ccc1Cl	?	-5.7	0.37µM*	-40	-1
CCc1nc(CN(C)C(=O)C2CCC(=O)N(Cc3cccc(F)c3)C2)no1 (stereo not given)	4	1.3	.	.	.
O=c1cc(O)c2ccccc2n1Cc1ccccc1F	-2	-3.1	7%	.	10
O=C(O)c1ccccc1C(=O)c1ccc2c(c1)N(Cc1cccc(F)c1)C(=O)CO2	8	2.8	10%	.	14
CCCn1c(-c2ccncc2)n[nH]c1=S	-8	0.3	0%	.	-9
O=C(COC(=O)CC1CC2CCC1C2)NC(=O)NCc1ccco1 (stereo not given)	-5	4.8	-3%	7	-4
O=c1cc(CN2CCN(c3ccccc3)CC2)c2c(ccc3ccccc32)o1	62	7.7	16%	-60	-4
Brc1ccc([C@H]2CN3CCSC3=N2)cc1	3	10	-3%	.	.
COc1ccc(NS(=O)(=O)c2cccc(C(=O)NNC(=O)c3cccn3C)c2)cc1	-14	2.1	.	.	.
Cc1ccc(N2C(=O)C(Cl)=C(Nc3c(C)n(C)n(-c4ccccc4)c3=O)C2=O)cc1	4	-4.4	-2%	-5	3
Cc1ccc(Oc2nnc(-c3cccs3)c3ccccc23)cc1	-3	1.1	-3%	-34	-2
COc1ccc(Cc2nnc(NC(=O)c3cccc([N+](=O)[O-])c3C)s2)cc1	14	0.9	-3%	0	0
CCOc1ccc(NC(=O)C(C)O)c(NS(=O)(=O)c2ccc(CCNC(C)=O)cc2)c1 (stereo not given)	3	-4.4	-8%	-46	11
O=C(Nc1nccs1)c1ccc(NC(=O)c2ccco2)cc1	1	0.2	-14%	-11	-5
C=CCOc1ccc2c(OC)c3ccoc3nc2c1OC	-2	11	-6%	-15	-12

(cont.)
SMILES	Mtb betalactam	RecA intein inh	Mtb growth	YopH PTP inh	Arbovirus inh	others
COc1ccccc1-c1nc(C(F)(F)F)c(OC)o1	1	3.4	-4%	10	0
O=c1c2ccccc2nc(-c2ccco2)n1-c1cccnc1	-17	5.6	7%	-24	5
CC(=O)/C(=N/Nc1ccccc1)N1CCOCC1	80	2.4	78%	-28	-30
Cc1cccc(NC(=O)c2ccc(F)c(S(=O)(=O)NCc3ccco3)c2)c1	-1	-3.3	.	.	.
CC(=O)NC1C(=O)N=C(SCc2ccccc2)NC1=O (stereo not given)	-4	.	-5%	-26	-1
CCC1CSC(=Nc2ccc(C)cc2)N1C(=O)CN1C(=O)NC2(CCCC2)C1=O (stereo not given)	-5	3.2	.	.	.
Cc1ccc(C(=O)NC2(C(F)(F)F)N=C3SCCN3C2=O)cc1 (stereo not given)	0	-0.6	-1%	-16	0
O=C(CC(c1ccccc1)c1ccccc1)NCCOCc1ccccc1	3	5.1	.	.	.
CCOC(=O)C1CCCN(C(=O)Cc2ccc(C)cc2)C1 (stereo not given)	-12	-1.3	3%	-1	2
COc1ccc(OCC(=O)Nc2cc(S(=O)(=O)N3CCCCC3)ccc2OC)cc1	-12	8.5	.	.	.
CC(C)Cn1c(Cc2ccccc2)n[nH]c1=S	-2	-0.7	-3%	-5	17
COc1ccc(CNC(=O)COc2cc3c(c4oc(=O)cc(C)c24)CCC(C)(C)O3)cc1OC	5	1.7	.	.	.

Screening results (PubChem)
